Beta apoptosis: blocks beta cell apoptosis | INS-1E cytokine-induced death, ATP luminescence, 48 h; percent of positive-control rescue, neutral wells zero | protection from apoptosis, % (no concentration beside the values) | 300,000 compounds, 0.8% hits | AID 435005;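 active = all replicates at 75% or more, or half of them and the mean; inconclusive = half reach 75% but not the mean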;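 note: 0% = cytokine-treated negative control wells and 100% = positive control rescue; higher means more ATP so stronger rescue from cytokine killing; wells of about 40 µL received 100 nL stock; the first replicate is given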
T cruzi inh: blocks replication of Trypanosoma cruzi. T. cruzi beta-gal in NIH3T3, luminescence, 90 h. inhibition, % (concentration not given with the values). 300,000 compounds, 1.4% hits;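 active = mean inhibition across valid replicates above about 55%, limit read from the data; inconclusive = mean below that limit but half or more replicates reach it; inactive = mean below it, under half of replicates reach it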;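 note: signal also drops with host cell toxicity which is not excluded here; 0% = plate median of DMSO wells and 100% = zero luminescence signal; higher percent means less beta-gal luminescence so fewer parasites; stock transfer was 50 nL into about 50 µL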
Calb FLC: affects C. albicans growth with fluconazole | C. albicans CaCi-2 (fluconazole-resistant clinical isolate) + fluconazole, Alamar Blue growth, 48 h | growth inhibition, % (concentration not given with the values) | 300,000 compounds, 0.57% hits;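 active = most replicates above 75%; inconclusive = exactly half above 75%; inactive = most below 75%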;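 note: all wells also contain fluconazole at 8 µg/ml as a sub-toxic cotreatment; 0% = median of DMSO wells and 100% = median of geldanamycin control wells; wells of about 8 µL received 7.5 nL stock; the first replicate is given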
MLL AF4-AF9 inh: MLL-AF4/AF9 protein interaction inhibition | P42568 | AlphaScreen, biotin-AF4 peptide binding to FLAG-AF9 | inhibition, % at 10 µM | 350,000 compounds, 0.47% hits;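 active = every replicate reaching a set inhibition limit, whatever the replicate mean, cut at about 25% in these data; inconclusive = mean inhibition reaches that limit but some replicates miss it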;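 note: 0% = plate neutral control median and 100% = total signal loss; the record names both 10 and 1 µM as test concentration; the first replicate is given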
Target sequence (P42568 whole entry, looked up): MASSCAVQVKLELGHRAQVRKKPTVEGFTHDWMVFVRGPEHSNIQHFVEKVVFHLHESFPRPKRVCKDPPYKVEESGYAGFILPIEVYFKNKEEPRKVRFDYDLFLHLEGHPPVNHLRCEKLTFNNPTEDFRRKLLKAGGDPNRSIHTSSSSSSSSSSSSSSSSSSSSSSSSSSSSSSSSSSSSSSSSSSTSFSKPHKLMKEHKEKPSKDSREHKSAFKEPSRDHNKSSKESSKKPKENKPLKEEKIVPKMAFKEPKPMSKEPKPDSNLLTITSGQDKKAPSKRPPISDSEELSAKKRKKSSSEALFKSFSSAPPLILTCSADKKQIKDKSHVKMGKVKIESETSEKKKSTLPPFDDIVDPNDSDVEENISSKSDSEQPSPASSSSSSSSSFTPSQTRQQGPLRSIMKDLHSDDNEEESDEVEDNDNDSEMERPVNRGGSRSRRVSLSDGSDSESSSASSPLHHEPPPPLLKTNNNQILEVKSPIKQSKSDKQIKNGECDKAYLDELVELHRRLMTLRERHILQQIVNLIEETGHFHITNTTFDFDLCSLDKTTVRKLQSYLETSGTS
Ecoli rRNA inh: selective bacterial rRNA inhibition in E. coli; 350,000 compounds, 1.6% hits; GFP signal change (wild-type ribosome), % (no concentration beside the values); AID 720706; E. coli WT GFP vs humanized-ribosome RFP mutants, fluorescence, 24 h; active compounds read low; DMSO median 0, no signal -100;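 active = significant combined selectivity score with lowered wild-type GFP, culture density cut under 30%, mutant RFP and density less affected; inactive = any of these conditions unmet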; note: one replicate is shown; some compounds called inactive have numbers as strong as hits
RanGTP-Impb inh: inhibitors of RanGTP-importin-beta interaction, primary screen, biochemical, FRET, CFP-Ran, YFP-importin-beta, homogeneous | AID 2216 | 300,000 compounds, 1.1% hits | cell-free CFP-Ran/YFP-importin-beta FRET ratio | inhibition, % (test concentration not listed);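 active = most replicates above 15%; inconclusive = exactly half above 15%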;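 note: 0% = DMSO wells and 100% = Ran loaded with GDP instead of GTP; wells of about 40 µL received 100 nL stock; the first replicate is given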
Vif TR-FRET: inhibitors of Vif binding to APOBEC3G peptide, primary screen, biochemical, TR-FRET, GST-Vif 1-94, biotin-A3G peptide, dose response retest (AID 1117319); TR-FRET GST-Vif / biotin-A3G peptide binding; higher % means a stronger effect; test concentration not given here; strong numbers were not always called active; inhibition, %; hits with a dose series show IC50 in µM; 260,000 compounds, 0.57% hits;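 active = above the screen mean plus three standard deviations and confirmed in dose response; inconclusive = results disagree or hit not tested in dose response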;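 note: Vif residues 1-94 fused to GST binding biotinylated APOBEC3G peptide 110-148; 0% = full assay without inhibitor and 100% = GST in place of GST-Vif; retest series ran down from 100 µM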
Bfl-1 A1 inh: inhibitors of the anti-apoptotic protein A1, read as caspase activation; MEF A1-2A-BIM cells, Caspase-Glo 3/7 luminescence, 3 h; percent of clofoctol response, vehicle zero; caspase activation, % (no concentration beside the values); 330,000 compounds, 0.066% hits; AID 2462;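 active = over half of replicate activation scores above 10%, or exactly half above 10 with the replicate mean above 10; inconclusive = replicate mean below 10 yet half the replicates above 10; inactive = over half of replicates below 10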;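 note: wells of about 30 µL received 50 nL stock; many hits fall short of the cut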
Ecoli rRNA inh OD600: also measured in Ecoli rRNA inh; calls as there; OD600 change, %; measured here: OD600 growth;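 optical density of the mix in the first replicate; 0 = DMSO median and -100 = no signal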
Ecoli rRNA inh RFP: second read-out of Ecoli rRNA inh, no call of its own (marks repeat the call); RFP signal change, %; measured here: RFP humanized mutant strains;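 first replicate; 0 = DMSO median and -100 = no signal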
* hit, by the source's call; ? = inconclusive; . = not tested or not shown; & = joins results of further samples. Some of the compounds tested, so the mix of outcomes need not match the whole.

SMILES	Beta apoptosis	T cruzi inh	Calb FLC	MLL AF4-AF9 inh	Ecoli rRNA inh	Ecoli rRNA inh OD600	Ecoli rRNA inh RFP	RanGTP-Impb inh	Vif TR-FRET	Bfl-1 A1 inh
COCCN(Cc1ccccc1)C(=O)C1CCN(C(=O)Nc2ccccc2)CC1	0	.	.	8.9	0	4	-2.4	.	.	1.0
Cc1ccc(S(=O)(=O)N2CCC(C(=O)OC(C)C(=O)NCc3ccccc3)CC2)cc1C (stereo not given)	.	14	-7	-7.7	-1	-21	2.1	1.4	-10%	0.5
CNc1cncc(C(=O)O)c1	-17	-15	-3	-1.9	23	5	3.9	-2.4	4%	0.8
CCn1c(SCC(=O)Nc2cccc(C)n2)nnc1-c1ccco1	.	3	-7	.	.	.	.	-5.4	0%	-1.0
O=C(CN(C(=O)CCC(=O)Nc1nccs1)c1ccc2c(c1)OCO2)NCC1CCCO1 (stereo not given)	-7	-5	-9	.	.	.	.	2.4	6%&1%	0.0
Cc1ccc(N=C2SC(C(=O)O)CC(=O)N2C)cc1C (stereo not given)	3	4	-15	-2.3	-1	2	-2.6	-0.3	1%	-1.0
CC(=C/c1ccccc1)/C=N/n1cnnc1	-1	6	-2	.	.	.	.	5.4	2%	0.2
CCOCCCNC(=S)N1CCN(Cc2ccc3c(c2)OCO3)CC1	-1	-13	-4	1.0	2	-5	-6.5	-3.1	.	-0.8
COc1ccc(NC(=O)N2CCN(CCC#N)CC2)cc1	.	-4	-10	.	.	.	.	-2.2	-10%	0.2
CC(C)(C)n1nnnc1C(c1ccc2ncccc2c1)N1CCSCC1 (stereo not given)	-3	15	-3	.	.	.	.	?	-2%	-0.4
c1ccc2c(c1)OCCOCCOCCOCCOc1ccccc1OCCOCCOCCO2	-1	35	5	.	.	.	.	-0.7	-4%	0.2
CC(=O)c1ccc(NC(=O)CSc2nnc(C3CC3)n2C2CC2)cc1	4	.	.	2.0	12	8	0.5	.	-2%	-0.3
Cc1ccc(/C=C2\SC(=S)N(CCC(=O)NCCCN3CCOCC3)C2=O)cc1	-10	2	-5	4.7	-10	-4	-1.5	-5.8	.	-0.9
O=C(O)C(Oc1ccc2c(-c3ccccc3)cc(=O)oc2c1)c1ccccc1 (stereo not given)	4	3	2	2.6	-35	-23	35	3.3	?	0.1
O=C(NC(=O)c1ccccc1)C1=C(N2CCCC2)COC1=O	2	.	.	-18	-3	5	-5.8	.	.	-2.3
Cc1cccc(N2C(=S)NC3c4cc(Cl)ccc4OC2(C)C3C(=O)N(C)C)c1 (stereo not given)	3	-13	4	10	-13	-2	4.2	9.0	1%	0.0
COc1ccc(N(Cc2cc3cc(OC)ccc3[nH]c2=O)S(C)(=O)=O)cc1	.	10	27	.	.	.	.	3.4	-4%	0.1
Cc1nc(C(=O)N2CCCC(Nc3ccc(C)c(C)c3)C2)cs1 (stereo not given)	-2	1	-13	-2.4	-2	4	-0.7	-0.5	.	-0.5
O=C(NC12CC3CC(CC(C3)C1)C2)N1CCC(O)CC1	3	-5	5	.	.	.	.	1.0	3%	0.0
C/C=C/c1ccc(OCC(=O)OCC(=O)Nc2c(C)nn(-c3ccccc3)c2C)c(OC)c1	-3	8	-11	-8.7	3	3	-2.2	1.9	0%	-0.2
O=C(NC(=S)NNC(=O)c1cc2ccccc2cc1O)c1ccco1	30	1	83*	-1.7	-8	1	2.6	2.5	?	-7.2
COc1ccccc1NC(=O)NNC(=O)CCN1CCOCC1	.	-2	10	-2.0	7	12	-2.1	-1.1	13%	0.6
O=C(CCC(=O)NNC(=O)Nc1ccc(Cl)cc1)NCc1ccccc1	1	-15	5	-5.1	12	12	-7.6	0.7	1%	-0.5
Cc1cc(C(=O)NCCCc2ccccc2)no1	-3	-5	-13	6.0	5	6	-3.0	2.1	-2%	?
COC(=O)c1ccc(CSc2nnc(NC(=O)c3cc4c(s3)CCCC4)s2)cc1	7	-20	7	.	.	.	.	3.9	0%	0.5

Next section (three carried over from the part before).
SMILES	Beta apoptosis	T cruzi inh	Calb FLC	MLL AF4-AF9 inh	Ecoli rRNA inh	Ecoli rRNA inh OD600	Ecoli rRNA inh RFP	RanGTP-Impb inh	Vif TR-FRET	Bfl-1 A1 inh
O=C(CCC(=O)NNC(=O)Nc1ccc(Cl)cc1)NCc1ccccc1	1	-15	5	-5.1	12	12	-7.6	0.7	1%	-0.5
Cc1cc(C(=O)NCCCc2ccccc2)no1	-3	-5	-13	6.0	5	6	-3.0	2.1	-2%	?
COC(=O)c1ccc(CSc2nnc(NC(=O)c3cc4c(s3)CCCC4)s2)cc1	7	-20	7	.	.	.	.	3.9	0%	0.5
CC(C)(C)c1ccc(C(=O)Nc2ccc(Cl)cc2)cc1	5	6	-2	3.7	-7	-4	5.8	-0.6	-6%	-0.3
COc1ccccc1OCC(=O)NC1CCCc2ccccc21 (stereo not given)	2	1	3	-6.8	-1	-12	-0.7	-5.1	.	0.8
O=C(/C=C/c1ccc(F)cc1)NNC(=O)CCN1CCN(Cc2ccccc2)CC1	-2	-3	-5	-0.3	2	2	2.1	-2.6	0%	-0.2
COc1ccc([N+](=O)[O-])cc1C(=O)Nc1ccc(Cc2ccncc2)cc1	22	34	13	-1.8	11	7	-2.1	1.8	1%	-0.1
N#CCC(=O)Nc1ccc(C(=O)OCC(=O)C23CC4CC(CC(C4)C2)C3)cc1	0	29	-16	-8.7	-9	-16	1.9	-4.6	-2%	-0.1
O=C(Nc1ccc(-n2cnnn2)cc1)c1cn2ccccc2n1	1	-7	-23	-15	8	1	2.3	3.2	-11%	-2.7
CCOC(=O)CCn1nnc(N)n1	-7	5	-4	-23	9	4	-4.3	-2.1	3%	0.1
CCCCCC(O)(c1ccc(OC)cc1)C(CN1CCOCC1)c1ccccc1 (stereo not given)	0	-5	15	1.9	-20	-49	11	2.6	-4%	?
CC[C@]12c3[nH]c4ccccc4c3CCN1C(=O)C(CC(=O)NCCCN(C)C)C[C@@H]2C(=O)N1CCN(C(=O)C2CC2)CC1 (stereo not given in full)	-2	.	.	-1.0	.	.	.	.	2%	-0.3
Oc1ccc(C[C@@H]2CNCCN2CCc2cccc3ccccc23)cc1	8	20	-8	11	-7	-15	11	1.8	.	2.3
COc1ccc(NC(=O)CSc2nc(SC)ns2)c(OC)c1	2	-9	-4	0.8	-4	-10	2.1	1.5	8%	0.0
O=c1c(Cl)c(N2CCC3(CC2)OCCO3)cnn1C12CC3CC(CC(C3)C1)C2	3	-6	7	2.2	4	-2	1.9	-0.3	6%	0.7
COc1ccccc1N1CCN(C(=O)C(C)CS(=O)(=O)c2ccc3c(c2)NC(=O)CS3)CC1 (stereo not given)	1	-3	13	-29	-3	10	23	0.6	.	-0.2
O=C(NNC(=O)c1ccccc1O)c1ccc(NS(=O)(=O)c2ccc(F)cc2)cc1	-4	-7	-1	8.9	-14	-19	4.7	.	4%	-0.1
CC(C)N(CCNCC(O)COc1ccc(C(C)(C)c2ccccc2)cc1)C(C)C (stereo not given)	-5	45	7	16	-57	-79	-18	1.4	-9%	0.0
COc1cc(C(=O)COC(=O)CNC(=O)C2CCCCC2)cc(OC)c1OC	-5	-30	2	.	.	.	.	-0.8	2%	1.3
COc1ccc(OC)c(C2C(C(=O)c3cc4ccccc4o3)=C(O)C(=O)N2c2cc(C)on2)c1 (stereo not given)	0	-10	?	.	.	.	.	-1.4	74%	-0.3
CCCc1cc(=O)[nH]c(SCc2csc(-c3ccccc3)n2)n1	-2	-16	69	-0.2	-16	-19	6.2	2.1	-12%	-0.6
Cc1ccc(Cn2ncc(C)c2N)o1	-4	1	-1	-16	3	9	-7.3	-2.9	.	-0.3
CSc1nsc(SC)c1C(N)=O	-1	.	-15	-5.6	14	3	0.1	-0.9	.	0.2
N#C/C(=C\c1ccc(O)c(O)c1)C(=O)NCCCc1ccccc1	-8	-14	.	?	.	.	.	12	.	0.9
CCN(CC)c1ccc(/C=C2\CCC(/C=N/NC(=O)c3ccc(=O)n(C)c3)=C2N2CCOCC2)cc1	10	0	8	17	13	9	58	-15	.	0.6
CCCOc1ccc(C(=O)NCC2OCCc3ccccc32)cc1OC (stereo not given)	-2	24	-22	-1.6	15	5	-0.5	-1.0	21%	0.1
O=C(NCCOC(=O)c1ccc(C(=O)OCCNC(=O)c2ccccc2)o1)c1ccccc1	-2	-1	-10	.	.	.	.	-1.2	?	0.0
CCN(c1ccccc1)S(=O)(=O)c1nnc(NC(=O)c2ccccc2OC)s1	13	11	0	2.3	-16	-13	-3.0	19*	.	-0.6

RanGTP-Impb inh: hit marks shown above.
smiles,MLL AF4-AF9 inh,Ecoli rRNA inh,Ecoli rRNA inh OD600,Ecoli rRNA inh RFP,RanGTP-Impb inh,Vif TR-FRET
CCN(c1ccccc1)S(=O)(=O)c1nnc(NC(=O)c2ccccc2OC)s1,2.3,-16,-13,-3.0,19*,.

Continuation.
SMILES	Beta apoptosis	T cruzi inh	Calb FLC	MLL AF4-AF9 inh	Ecoli rRNA inh	Ecoli rRNA inh OD600	Ecoli rRNA inh RFP	RanGTP-Impb inh	Vif TR-FRET	Bfl-1 A1 inh
CC(=O)Nc1ccc(/C=N/Nc2nncc3ccccc23)cc1	2	-5	14	-9.7	2	5	-0.2	3.3	-1%	-3.0
O=S(=O)(c1cccc2cccnc12)N1CCc2ccccc21	-1	6	-4	.	.	.	.	0.4	1%	0.9
CCN1CCN(C(c2cc(OC)ccc2OC)c2nnnn2Cc2ccccc2)CC1 (stereo not given)	5	6	-1	.	.	.	.	1.5	0%&-7%	0.5
O=C(COC(=O)CC1CC2CCC1C2)NCc1ccccc1 (stereo not given)	-4	.	.	-1.2	-16	-35	0.0	.	-7%	-0.6
COC(=O)c1ccc(-c2ccc(OC)c([C@H]3[C@H]4C=CC[C@@H](C)[C@@H]4C(=O)N3Cc3ccccc3)c2)cc1	-10	47	-3	.	6	10	1.6	-0.2	4%	2.1
CCCc1cc(=O)oc2c(C)c(OCC(=O)NCCCn3ccnc3)ccc12	1	-6	-7	-3.0	-17	-8	-1.8	0.8	.	-0.1
COc1ccc(C)cc1NC(=O)c1ccc(CN2CCc3ccccc3C2)cc1	-2	17	-65	-1.9	-24*	-19*	-6.6*	-2.1	7%	-0.8
COc1ccccc1NC(=O)/C(=N/OCc1ccc(C#N)cc1)C(C)=O	.	-3	-16	-0.1	7	7	-1.6	1.3	-2%	0.0
Cc1cccc(N2CCN(C(=O)C3(S(=O)(=O)c4ccc(Cl)cc4)CC3)CC2)c1C	-2	20	9	-0.9	-17	-15	11	2.9	22%	-0.1
Cc1ccc(Cl)cc1N1CCN(S(=O)(=O)N2CCCCC2)CC1	4	29	5	-2.8	-28	-34	-3.1	-1.0	.	-0.2

Screens deposited in PubChem BioAssay by several laboratories.
